# Source: PubChem BioAssay
# Menin-MLL FL inh = qHTS Assay for Inhibitors Targeting the Menin-MLL Interaction in MLL Related Leukemias: Competition With Fluorescein Labeled MLL-derived Peptide; 290,000 tested, under 10 active; Fluorescence polarization, fluorescein-MLL peptide displacement from menin; AID 1766, 2009; FP activity change, % at 61.4 µM; inconclusive = falling polarisation curve, or a change in total fluorescence; inactive = total fluorescence flat and polarisation flat or rising; no compound was filed as active; the % refers to the polarisation; negative = inhibition;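 also: % of control where 0% means no effect; inhibitors lower the polarisation; unlabelled MLL peptide was the positive control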
# Sfp PPTase inh = qHTS Assay for Inhibitors of Bacillus subtilis Sfp phosphopantetheinyl transferase (PPTase) | Potency, µM, without a hit: max response, negative = inhibition, hits mostly inhibitors | actives 3.5% (n = 310,000) | 4'-phosphopantetheinyl transferase ffp (Bacillus subtilis), Q9F4F7 | Biochemical Sfp PPTase activity, qHTS; active = well fitted inhibition curve with a large enough effect; inconclusive = small, poorly fitted or top-dose-only effect, or another doubt; inactive = no such curve, though single readings can be large or run the other way;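 also: the enzyme is Sfp with the accession as filed and its product quenches rhodamine fluorescence; potency is read from the fitted curve at half-maximal effect; 0% = enzyme reaction without inhibitor and -100% = no enzyme wells; top concentration of the series not given in the record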
#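 Fluorescence-quenching assay with 15 nM Sfp, 5 uM rhodamine-CoA and 12.5 uM BHQ-2-labelled ybbR peptide in pH 7.6 Hepes/MgCl2 buffer. Enzyme was pre-incubated with compound for 15 min at room temperature. Rate was taken from the 30-min fluorescence change (525/598 nm).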
# TRPV1 PAM = HTS Assay for Compounds that Act as Potentiators of the Vanilloid Receptor 1; potentiation, % at 8.33 µM; TRPV1-expressing cells, Fluo-8 calcium influx, capsaicin EC20 potentiation; host cell line not named in the record; control for the full effect not named in the record; actives 0.02% (n = 320,000); active means potentiation above 80%; inconclusive means 30% to 80%; inactive means below 30%; also: 0% is about no effect
#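 Cells expressing TRPV1 were dye-loaded with Fluo-8 and read kinetically: 10 s baseline, 3 min after compound (agonist portion), then 2 min after EC20 capsaicin (allosteric enhancer portion). Calcium-bound dye fluorescence at 480/520 nm.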
# gsp antag = qHTS for Antagonists of gsp, the Etiologic Mutation Responsible for Fibrous Dysplasia/McCune-Albright Syndrome: qHTS; gsp-mutant cells, cAMP HTRF, 30 min; control for the full effect not named in the record; Potency, µM (highest dose often 76.9 µM), inactives show top-dose activity change, negative = inhibition, actives largely listed as inhibitors; actives 0.4% (n = 340,000); active = falling curve of any shape with a large fitted effect; inconclusive = falling curve, mostly with a smaller effect; inactive = flat or rising curve; cell line not stated here;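 also: intracellular cAMP measured with PDE inhibitor Ro 20-1724 present during compound exposure; potency is read from the fitted curve at half-maximal effect; % is scaled to controls: 0 for no effect and ±100 for the full control effect; nearly all actives have a fitted effect of over 65% in size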
#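 Cells in G418 medium, seeded 16-24 h, 37C; buffer exchange to DPBS + 1 mM CaCl2, 0.5 mM MgCl2, 0.05% BSA; cpds in DMSO + […] (300 uM stock), 30 min 37C; HTRF cAMP detection.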
# ClpP mod = qHTS Assay for Activators of ClpP; ATP-dependent Clp protease proteolytic subunit (Bacillus subtilis (strain 168)), P80244; purified B. subtilis ClpP, FRET peptide cleavage, 20 min; Potency, µM (doses to about 57.5 µM), for the others: at the top dose activity change, negative = active; actives 1.9% (n = 340,000); active = well fitted falling curve with a large enough effect; inconclusive = small, poorly fitted or top-dose-only effect; inactive = no such curve, though single readings can be large or run the other way; also: potency is read from the fitted curve at half-maximal effect; the source files actives as falling curves though it sought activators and does not explain the sign; nearly all actives have a fitted effect of over 65% in size; many hits overshoot -100%
# Target sequence (P80244 whole entry, looked up): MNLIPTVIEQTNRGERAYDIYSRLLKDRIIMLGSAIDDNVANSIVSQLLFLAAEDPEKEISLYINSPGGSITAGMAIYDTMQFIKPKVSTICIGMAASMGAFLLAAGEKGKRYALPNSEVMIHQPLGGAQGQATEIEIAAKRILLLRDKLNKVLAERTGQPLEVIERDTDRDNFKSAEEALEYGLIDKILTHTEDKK
#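 FRET quenching reversal measured ClpP activation: 10 microg/mL B. subtilis ClpP at pH 8 with the FRET-FV decapeptide, read at 430 nm after 320 nm excitation. The 20-min minus 0-min signal was scaled between DMSO/no-enzyme wells and ADEP (5.8 microM final).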
# gsp ag = qHTS for Agonist of gsp, the Etiologic Mutation Responsible for Fibrous Dysplasia/McCune-Albright Syndrome: qHTS | gsp mutant cells, cAMP HTRF, 30 min; control for the full effect not named in the record | Potency, µM (titrated, usually from 76.9 µM), inactives show at the highest dose activation (cAMP increase), actives largely listed as activators | actives 0.13% (n = 340,000); active = well fitted activation curve with a large enough effect; inconclusive = small, poorly fitted or top-dose-only effect, or another doubt; inactive = no such curve, though single readings can be large or run the other way; cell line not stated here;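 also: phosphodiesterase inhibitor Ro 20-1724 added with compounds to block cAMP breakdown; potency is read from the fitted curve at half-maximal effect; nearly all actives have a fitted effect of over 60% in size; about a fifth of the inactives were tested at one dose only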
#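 Cells stably selected in G418 were plated at 2000/well, grown 16-24 hr, then given compounds in DMSO with the PDE inhibitor […] (300 uM solution added) for 30 min at 37C; cAMP was read by HTRF.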
# D2 potentiator = Beta-Arrestin HTS for Positive Allosteric Modulators of the Human D2 Dopamine Receptor: Potentiators. potentiation, % (concentration not given with the values). DiscoveRx D2 beta-arrestin cells, luminescence, 90 min; 100% = 57 uM dopamine signal. actives 0.23% (n = 360,000); active = potentiation of 50% or more; inconclusive = 30% to 50%; inactive = 30% or less;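 also: compound concentration not given in the record; tested on top of an EC20 dose of dopamine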
# Target sequence (P14416 whole entry, looked up): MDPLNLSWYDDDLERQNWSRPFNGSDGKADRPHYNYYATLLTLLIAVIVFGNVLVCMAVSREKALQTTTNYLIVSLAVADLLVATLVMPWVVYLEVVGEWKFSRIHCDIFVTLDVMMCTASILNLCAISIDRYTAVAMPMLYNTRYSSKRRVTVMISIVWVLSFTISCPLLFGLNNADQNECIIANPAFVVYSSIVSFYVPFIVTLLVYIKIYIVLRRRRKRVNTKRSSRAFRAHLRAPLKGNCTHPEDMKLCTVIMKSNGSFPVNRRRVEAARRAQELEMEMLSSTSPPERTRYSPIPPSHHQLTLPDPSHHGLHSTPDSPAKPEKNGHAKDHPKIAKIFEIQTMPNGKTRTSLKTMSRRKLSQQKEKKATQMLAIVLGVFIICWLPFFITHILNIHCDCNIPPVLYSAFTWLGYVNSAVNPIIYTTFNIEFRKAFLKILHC
#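 PathHunter beta-arrestin assay in DiscoveRx D2 cells. Compounds were added with an EC20 of dopamine (50 nM final) for 90 min at 37 deg C. Luminescence was read 1 h after detection reagent, with 57 uM dopamine as the EC100 control.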
# An asterisk follows results filed as active; ? = inconclusive; / = no result given; & = joins results of further samples; [ ] = remark or other dose.
SMILES | Menin-MLL FL inh | Sfp PPTase inh | TRPV1 PAM | gsp antag | ClpP mod | gsp ag | D2 potentiator
Nc1nc(Nc2ccc(Cl)cc2)n[nH]1 | -2.6 | 10% | -8 | -7% | 1.7% | -11% | 0
CC1CN(C(=O)COC(=O)/C=C/c2ccccc2)CC(C)O1 (stereo unspecified) | / | / | / | / | -2.1% | 5% | -5
CCc1ccc(C(=O)CC2(O)C(=O)N(CN3CCOCC3)c3ccccc32)cc1 (stereo unspecified) | -0.7 | 3% | 6 | 8% | 1.9% | -58%[inhibitor] | 0
CN1CCN(c2ccc(Cl)cc2NC(=O)c2cccc(S(=O)(=O)N(C)C)c2)CC1 | 1.9 | -7% | -2 | 8% | 0.8% | 12% | -29
COC(=O)C(C)NC(=O)c1cn(-c2ccccc2OC)c(=O)c2ccccc12 (stereo unspecified) | -4.9 | 9% | 7 | 2% | -19% | 0% | -3
Cc1ccc(S(=O)(=O)N(C)/C(=N/S(=O)(=O)c2ccccc2)c2ccccc2)cc1 | -0.3 | 18% | 18 | 1% | 1.1% | -31%[inhibitor] | -3
Cc1cccc(OCC(=O)O/N=C(\N)c2ccccn2)c1C | -2.0 | 12% | -12 | 14% | 0.7% | 8% | -11
Cc1ccc(C(=O)CC(C(=O)O)n2cccn2)cc1 (stereo unspecified) | -0.8 | -2% | -1 | -10% | -0.8% | 13% | 0
COc1cc(NC(=O)c2ccc3c(c2)OCO3)ccc1NC(=O)c1cccs1 | 4.6 | 15% | -7 | -21% | / | -5%[15.4 µM] | -6
CN(C)c1ccc(/C=C(\NC(=O)c2ccccc2)C(=O)NCCCN2CCOCC2)cc1 | / | 21% | 2 | ? | -1.0% | -4%[15.4 µM] | 6
c1ccc(N2CCN(c3nc4ccccc4n4cnnc34)CC2)cc1 | 1.4 | 2% | -10 | -5% | -0.8% | ? | -3
O=C1Oc2ccccc2C2(O)C3CCCCCC3C12 (stereo unspecified) | -2.7 | 19% | 9 | 0%[15.4 µM] | -2.5% | -47%[inhibitor] | -6
CN(C)/C=C1\C(=O)NN=C1C(F)(F)F | 0.6 | 0% | -1 | ? | / | 18%[15.4 µM] | -2
O=C(O)C1CSC(c2ccc(O)c([N+](=O)[O-])c2)N1 (stereo unspecified) | -1.0 | 27% | 3 | 3% | / | -6%[15.4 µM] | -9
COc1ccc(C(=O)Nc2cc(C)nc3ccccc23)cc1OC | -1.1 | 13% | 0 | -15% | -1.4% | 3% | -4
Cc1ccc(CNC(=O)c2sccc2-n2cccc2)cc1 | 5.5 | -10% | 4 | -11% | 1.2% | -6% | 9
CCOc1ccccc1N1CCN(C(=O)c2cc[n+]([O-])cc2)CC1 | 2.3 | -6% | -2 | 21% | -1.1% | 4% | -43
O=c1oc2cc(O)ccc2cc1-c1nc2c(s1)CCc1ccccc1-2 | ? | 56µM* | -13 | 14% | 20µM* | ? | 15
Cc1cc([N+](=O)[O-])nn1CC(=O)NCc1ccco1 | 2.1 | 16% | -4 | 1% | -0.1% | 8%[15.4 µM] | -3
CCOC(=O)CSc1nc2ccccc2c(=O)n1Cc1ccco1 | -0.1 | 3% | -12 | -17% | 0.5% | -72%[inhibitor] | -4
O=C(O)C1CCN(C(=O)COc2ccc3c4c(c(=O)oc3c2)CCC4)CC1 | 3.1 | 16% | -1 | 10% | 25% | -14% | -7
Cn1c(=O)[nH]c2ccc([N+](=O)[O-])nc21 | / | 0% | 7 | 7% | -1.8% | 2%[15.4 µM] | -2
CN(C)CC(O)COc1ccc(C(C)(C)c2ccc(OCC(O)CN(C)C)cc2)cc1 (stereo unspecified) | 2.6 | -6% | 13 | 17% | 0.8% | -30% | -20
CC1CN(C(=O)c2ccc3c(c2)OCO3)CC(C)O1 (stereo unspecified) | -2.5 | -5% | -3 | -6% | -0.8% | -8% | 1
CCCNC(=O)NC(=O)COC(=O)c1oc2ccc(OCC)cc2c1C | 0.7 | 5% | 10 | 4% | ? | -3% | -11
CC(=O)c1ccccc1NC(=O)CCCNC(=O)c1ccc(Cl)cc1 | -7.7 | -16% | -4 | -8% | / | 0% | -10
O=c1c(-c2n[nH]c(=S)o2)cccn1Cc1ccccc1 | 0.6 | -22% | -7 | -1% | / | 11%[15.4 µM] | -8
CCn1cc(CN2CCCC(C(=O)Nc3ccc(-c4cscn4)cc3)C2)c(C)n1 (stereo unspecified) | -0.5 | 8% | -4 | 6% | -3.0% | 5% | -24
CCc1cccc(NC(=S)N(CCCOC(C)C)C2CCN(C(C)=O)CC2)c1 | 3.5 | 10% | -28 | -6% | 0.8% | 18% | -3
CCOC(=O)Cn1c(=O)oc2cc(S(=O)(=O)N(C)Cc3ccco3)ccc21 | 2.5 | 26% | -18 | 2% | 0.6% | -4% | 1
COc1cc(C(=O)NNC(=O)c2ccco2)cc(OC)c1OC | -0.8 | 23% | 8 | 10% | / | 9%[15.4 µM] | -5
CCNc1sc(C(=O)c2cccs2)c(N)c1C#N | 4.7 | 45µM* | 13 | 1% | 13% | ? | -49
COc1cc(NC(=S)NC(=O)c2ccccc2F)ccc1NC(=O)c1cccs1 | 3.3 | ? | 10 | -32% | 0.3% | 2% | -12
CCOC(=O)C1(Cc2ccccc2C(F)(F)F)CCN(C(C)CCn2cccn2)CC1 (stereo unspecified) | 3.0 | -8% | 2 | 4% | / | 24% | -10
COc1ccc([C@H]2/C=C\CN(S(=O)(=O)c3ccc(C)cc3)[C@@H](C)C(=O)N2Cc2ccc(F)cc2)cc1 | / | / | / | -10% | -1.3% | -21% | -11
Cn1nnnc1SCC(=O)Nc1nc2c(s1)CCCC2 | -2.0 | 12% | 0 | -5% | -0.1% | -17% | -4
CC(C)NC(=O)c1ccccc1NC(=O)C(C)Oc1ccccc1 (stereo unspecified) | -1.8 | 22% | -8 | 7% | -3.0% | -10%[15.4 µM] | -10
Cc1cc(N=Nc2ccc(C)c(N=Nc3cc(C)c(N)cc3N)c2)c(N)cc1N | -13 | ? | ? | -9% | 0.9%&-0.3% | -15% | -18
COC(=O)c1ccccc1NC(=O)/C=C/c1cc(OC)c(OC)c(OC)c1 | -0.7 | 9% | 2 | -16% | -13% | -33%[inhibitor] | -4
O=C(Oc1c(CN2CCOCC2)cc(Cl)c2cccnc12)c1ccccc1Cl | -4.9 | 0% | -8 | -18% | / | 2%[15.4 µM] | -30
O=C(Nc1nc2c(Br)cccc2s1)C1CC1 | -1.7 | 8% | -6 | -4% | 0.1% | -23% | -4
CCCOC(=O)C(C)n1c(-c2ccccc2)nc2ccccc2c1=O (stereo unspecified) | 1.8 | -7% | -24 | 1% | -1.7% | 6% | -13
CC(C)n1cc(CN2CCC(Oc3ccc(C(=O)N4CCCC4)cc3)CC2)cn1 | 3.6 | 19% | -6 | 19% | 1.2% | 9%[15.4 µM] | -8
COc1ccc([C@@H]2[C@@H]3C(=O)N(C(C)(C)C)C(=O)[C@@H]3[C@]3(C)C(=O)N(c4cccc(F)c4)C(=O)N23)cc1 | -0.3 | 3% | -1 | 1% | -0.1% | / | -7
c1ccc(-c2cn3c(n2)-c2ccccc2C3)cc1 | 5.1 | -5% | -6 | 2% | 14µM* | -14% | 10
COC(=O)c1ccc(CSc2nnc(CNC(=O)COc3ccc(Cl)cc3)o2)o1 | 0.0 | 7% | 0 | -14% | 1.3% | -9% | -13
O=C(NCc1cccs1)c1cc(-c2cccs2)on1 | 3.4 | -5% | -17 | 14% | -3.9% | -15% | -16
CCOC(=O)N1CCC(N2Cc3cccc(C(=O)Nc4ccc(F)cc4)c3C2=O)CC1 | 2.4 | -22% | 1 | 0% | -0.3% | -13% | -15
CNc1nc(SC(C)C(=O)Nc2ccc(Cl)c(Cl)c2)nc(N2CCOCC2)n1 (stereo unspecified) | 1.4 | 28% | -5 | 15% | / | -11%[15.4 µM] | 8
CC1CC(C)CN(C(=O)CCc2nnc3ccc(N4CCCCC4)nn23)C1 (stereo unspecified) | -1.7 | 7% | 0 | 10% | 1.3% | 35% | -11
CCOC(=O)Cc1csc(N/N=C\c2cccc(Br)c2)n1 | 4.0 | -26% | -2 | -2% | 1.5% | 2%[15.4 µM] | 0
COc1cc(Cl)c(CN2CCC(CO)(CCOc3ccccc3)CC2)cc1OC | -1.7 | 15% | 0 | 5% | 0.2% | -15% | -3
Cc1ccc(F)cc1NC(=O)COC(=O)C1CCN(c2ccc(C(F)(F)F)cn2)CC1 | / | / | 13 | -5% | ? | 6% | -5
COc1ccc(NC(=O)C2Cc3ccccc3CN2C(=O)c2ccco2)cc1 (stereo unspecified) | / | -3% | -1 | 6% | -13% | 13%[15.4 µM] | 5
CC(C)n1c(=O)[nH]c(=O)n1C(C)C | / | / | / | 4% | / | 4% | 1
Nc1nc(CSC(=S)N2CCOCC2)nc(Nc2ccccc2)n1 | / | -5% | 24 | 0% | 1.7% | 6%[15.4 µM] | -12

# Next compounds follow.
SMILES | Menin-MLL FL inh | Sfp PPTase inh | TRPV1 PAM | gsp antag | ClpP mod | gsp ag | D2 potentiator
CCOc1ccc(NC(=O)CCCN2C(=O)C(c3ccccc3)Oc3cccnc32)cc1 (stereo unspecified) | 1.5 | 0% | -2 | -12% | 0.5%&1.8% | -29% | 3
COc1ccc(C2=NN(S(C)(=O)=O)C(c3ccc4nccnc4c3)C2)cc1 (stereo unspecified) | 22 | 13% | -11 | 1% | -1.9% | 26% | -17
CCc1ccccc1NC(=O)CSc1nc2ccccc2n1CC(=O)N1CCCC1 | 1.1 | 17% | 2 | 7% | 0.3% | 15% | -4
CC(=O)N/C(=C/c1ccccc1)C(=O)NC(Cc1ccccc1)C(=O)O (stereo unspecified) | 5.3 | 22% | -9 | 5% | 1.8% | 9%[15.4 µM] | -9
COc1ccc(-c2c(-c3ccc(OCC(=O)NN)cc3O)n[nH]c2C)cc1 | 2.2 | 5% | 2 | -2% | / | 9%[15.4 µM] | -1
